# BJeLR viability: kills HRASV12-expressing BJeLR cells; BJeLR (HRASV12) viability, CellTiter-Glo ATP luminescence, 48 h; reference of the scale not given here; inhibition, % (concentration not given with the values); 300,000 compounds, 0.17% hits; AID 1554;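 active = replicate mean above 50%; inconclusive = above 50% but judged a plate artefact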;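 also: 50 nL library stock added to about 25 µL; numbers are from one replicate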
# Autofluor counter: counter-screen for toxin protease inhibitors: compound fluorescence. compound autofluorescence counterscreen, microsphere flow cytometry; hits give high values. fluorescence intensity (concentration not given with the values). 360,000 compounds, 3.1% hits. AID 624483;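 active = at least 3 SD above the mean of all compounds, about 16000 in these data; inconclusive = too few beads counted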;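 also: 100 nL of 1 mM stock went into each well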
# Sa ugtP lethal: kills S. aureus RN4220 lacking UgtP; S. aureus RN4220 ugtP deletion, OD600 growth, 16 h; some inactives read as strong as hits; growth inhibition, % (concentration not given with the values); 330,000 compounds, 0.54% hits; AID 1259309;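 active = z-score under -3 and OD600 up to 0.15 on both plates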;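 also: plate controls were untreated wells for no effect and antibiotic for full effect; wells of about 80 µL received 100 nL stock; the first replicate is given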
# PrP UTR inh: suppresses PrP 5' UTR mRNA reporter expression; 340,000 compounds, 0.35% hits; inhibition, % (test concentration not listed); AID 488862; cell-based PrP 5' UTR mRNA reporter, plate reader;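 active = every replicate at 50% or more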;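 also: 0 = median of the neutral control wells; tested in H4 reporter cells; numbers are from one replicate; inactives centre near -14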
# RN4220 kill: S. aureus RN4220 growth inhibition. OD600, 16 h. 330,000 compounds, 0.33% hits. inhibition, % (no concentration beside the values);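 active = z-score of -3 or lower and OD600 up to 0.18 on both plates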;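 also: plate controls were untreated cells for no effect and reference antibiotic for full effect; stock transfer was 100 nL into about 80 µL; one replicate is shown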
# Mtb hypoxia inh: reduces hypoxia-regulated biosensor signal in M. tuberculosis. M. tuberculosis hypoxia-regulated fluorescent reporter, fluorescence. AID 1159583. 300,000 compounds, 0.1% hits. fluorescence inhibition, % (concentration not given with the values);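 active = 35 to 45% if threefold the growth effect, above 45% if 1.5-fold the growth effect; inactive = the rest, general growth blockers included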;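 also: wells of about 50 µL received 100 nL stock; 0% = vehicle wells and 100% = reference inhibitor wells; whole bacteria with a GFP reporter of the hypoxia response; strong numbers were not always called active; many hits fall short of the cut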
# Mtb hypoxia inh growth: recorded beside Mtb hypoxia inh, whose call it bears; growth inhibition, %; measured here: M. tuberculosis growth (absorbance);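 0% = vehicle and 100% = reference antibiotic; read after six days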
# The depositor's hits bear a star; ? = inconclusive; · = no result given.
SMILES,BJeLR viability,Autofluor counter,Sa ugtP lethal,PrP UTR inh,RN4220 kill,Mtb hypoxia inh,Mtb hypoxia inh growth
O=C1C(Cl)=C(Nc2ccccc2)C(=O)c2ccccc21,9,10843,20,-95,56,-3,7
COCCNC(=O)CN(C(=O)CCC(=O)Nc1ccccn1)c1ccccc1OC,4,3689,0,-10,-0.7,12,1
CC(C)C(=O)Nc1cccc(S(=O)(=O)c2cccc(NC(=O)C(C)C)c2)c1,0,2616,1,4,-0.2,8,8
Cc1ccccc1NN=Cc1ccc(N2CCOCC2)cc1,·,·,-4,·,-0.1,3,4
Cc1cc(C)c2c(c1)/C(=N\N=c1\sc3ccccc3n1C)C(=O)N2,3,4440,·,-46,·,·,·
C/C(=N\Nc1nncc2ccccc12)c1ccc(O)cc1,-2,6407,·,-79,·,·,·
O=C(c1cc2ccccc2oc1=O)N1CCCN(C(=O)c2cc3ccccc3oc2=O)CC1,·,4739,0,-30,4.0,7,0
COc1ccc(-c2nc(C#N)c(NCCc3ccccc3)o2)cc1,8,11107,-4,-59,-3.5,5,12
CN1/C(=C\C=N\NC(=O)c2ccc(O)cc2)C(C)(C)c2ccccc21,4,10019,·,-24,·,·,·
O=C(c1ccc(N2C(=O)C3CC=C(Cl)CC3C2=O)cc1)N1CCCCC1 (stereo unspecified),-8,2519,5,-4,3.5,10,10
Cc1ccc(S(=O)(=O)N2CCN(C(=O)c3cc4c(C)nn(-c5ccccc5)c4s3)CC2)cc1,3,10098,0,-8,-1.6,-1,-5
Cc1nn(CC(=O)Nc2ccc(Cl)cn2)c(C)c1[N+](=O)[O-],-8,3862,16,-2,-2.8,·,·
CCOc1ccccc1-c1nc(-c2ccncc2)no1,2,3983,-7,-24,7.9,14,12
COC(=O)c1ccc(NC(=O)C23CC4CC(C2)CC(n2cncn2)(C4)C3)cc1,-10,4366,-3,-36,-4.9,-5,-6
O=C(OCC(=O)N1CCN(c2ccccc2)CC1)c1ccncc1,·,3932,6,-5,1.3,5,0
O=C(NN=Cc1cccc(C(F)(F)F)c1)C1CCN(c2ncc(C(F)(F)F)cc2Cl)CC1,·,·,4,·,7.9,5,10
COc1ccc(CCn2c(N3CCN(Cc4ccccc4)CC3)nc3c2c(=O)[nH]c(=O)n3C)cc1,-12,3675,1,-5,6.5,·,·
Cc1ccccc1NC(=S)NCc1ccccc1,-8,2510,3,-17,-0.6,13,7
Cc1ccc(N2C(=O)C3C(C2=O)C2C=CC3C23CC3)cc1 (stereo unspecified),·,19890*,3,-18,0.9,3,14
CC(c1nnc(SCC(=O)Nc2sccc2C#N)n1-c1ccc(Cl)cc1)N(C)C (stereo unspecified),-11,4034,3,-16,5.1,10,-4
Cc1cccc(C(=O)Nc2nnc(C3=COCCO3)o2)c1,-4,3716,0,-23,1.2,7,7
Cc1cc(N)n2ncc(-c3ccccc3)c2n1,3,4620,9,-132,-4.4,6,9
COc1ccc(Cc2nnc(SCC(=O)Nc3c(C)cccc3C)[nH]c2=O)cc1,1,?,6,-21,0.3,-4,-5
Cc1cc(/C=N/NC(=O)c2ccc(O)cc2)c(C)n1CC(C)C,-3,3528,·,-18,·,·,·
CN(Cc1ccccc1)C(=O)c1ccc(NC(=O)Cc2ccc(NC(=O)C3CCCN(S(=O)(=O)c4cccc([N+](=O)[O-])c4)C3)cc2)cc1 (stereo unspecified),·,4001,4,-24,3.5,-1,3

# Exported with tabs: two of the compounds above
molecule	BJeLR viability	Autofluor counter	Sa ugtP lethal	PrP UTR inh	RN4220 kill	Mtb hypoxia inh	Mtb hypoxia inh growth
COc1ccc(Cc2nnc(SCC(=O)Nc3c(C)cccc3C)[nH]c2=O)cc1	1	?	6	-21	0.3	-4	-5
Cc1cc(/C=N/NC(=O)c2ccc(O)cc2)c(C)n1CC(C)C	-3	3528	·	-18	·	·	·

# Molecules listed so far that have an NH in an aromatic ring (2):
SMILES,BJeLR viability,Autofluor counter,Sa ugtP lethal,PrP UTR inh,RN4220 kill,Mtb hypoxia inh,Mtb hypoxia inh growth
COc1ccc(CCn2c(N3CCN(Cc4ccccc4)CC3)nc3c2c(=O)[nH]c(=O)n3C)cc1,-12,3675,1,-5,6.5,·,·
COc1ccc(Cc2nnc(SCC(=O)Nc3c(C)cccc3C)[nH]c2=O)cc1,1,?,6,-21,0.3,-4,-5

# Continued.
SMILES,BJeLR viability,Autofluor counter,Sa ugtP lethal,PrP UTR inh,RN4220 kill,Mtb hypoxia inh,Mtb hypoxia inh growth
Cc1ccc2nc(Cl)c(C3CC(c4ccco4)=NN3S(C)(=O)=O)cc2c1 (stereo unspecified),8,·,-5,-20,4.1,8,0
COc1ccc(C(=O)N/C(=C\c2cccs2)c2nc3ccccc3[nH]2)cc1OC,·,10782,18,-16,6.0,4,14
CS(=O)(=O)c1ccc(Cl)c(NC(=O)COC(=O)Cc2c[nH]c3ccccc23)c1,0,5631,4,-12,3.7,8,11
CC(C)C(=O)N1CCN(c2ccccc2NC(=S)NC(=O)c2cccs2)CC1,2,4510,8,-20,-4.6,2,10
O=C(Nc1ccc(Cl)cc1)N1CCSCC1,12,2546,-3,-22,-12,2,10
CCN(CC)S(=O)(=O)c1ccc(Cl)c(C(=O)NCc2ccco2)c1,4,3241,9,-21,-1.1,7,6
CCCCOc1cccc(C(=O)Nc2ccc(S(=O)(=O)Nc3nnc(CC)s3)cc2)c1,-7,3580,15,-54,5.6,-10,-1
CCN(CC(=O)Nc1cc(Cl)ccc1C)C(=O)COc1cccc2c1OC(C)(C)C2,-17,5358,3,-26,0.8,3,4
Cc1ccc(NC(=S)N(CCN2CCOCC2)Cc2cc3cc4c(cc3[nH]c2=O)OCO4)cc1,3,5747,1,-63,4.3,10,1
O=C(NCc1ccccn1)c1ccc(CNS(=O)(=O)c2cccc(C(F)(F)F)c2)cc1,-1,4724,-4,-17,6.1,3,10
O=C(CSc1nnc2ccc(-c3ccccn3)nn12)Nc1ccccc1,4,·,0,-21,2.8,-4,-2
CCCOc1ccc(-c2c(=O)n(O)c3ccccc3[n+]2[O-])cc1,-2,3385,·,-80,·,·,·
CC[n+]1c(/C=C/Nc2ccccc2)oc2ccc(OC)cc21,2,3231,9,-17,2.8,10,1
CCOC(=O)c1c(NC(=O)c2cccc(N3C(=O)CCC3=O)c2)sc(C)c1C,-5,11459,6,-13,4.7,3,-3
O=C(NC1CCCCC1)C1CCCN1S(=O)(=O)c1ccc(F)cc1 (stereo unspecified),2,5323,·,-1,·,·,·
COc1ccc(N2CCN(C(=O)c3cccc(NC4=NC5CS(=O)(=O)CC5S4)c3)CC2)cc1 (stereo unspecified),-21,6235,6,-1,5.1,-6,-2
CCC(CC)c1nnc(NC(=O)CS(=O)(=O)c2ccc(C)cc2)s1,-11,3867,7,-20,11,0,12
O=C(N/N=C/c1ccccn1)c1cc(-c2cccc3ccccc23)n[nH]1,-6,2224,·,-7,·,·,·
CCN(CC)C(=O)c1cc2c(=O)n3cccc(C)c3nc2s1,-22,4008,10,-26,6.8,8,10
Cc1ccc(S(=O)(=O)N(C)C)cc1NC(=O)COC(=O)COc1ccc2c(C)cc(=O)oc2c1,·,3384,7,-29,1.9,12,7
O=C(O)c1ccc(C=NNC(=O)C(O)(c2ccccc2)c2ccccc2)cc1,·,·,1,·,5.6,1,-1
Cc1nc2sc(C(c3ccccc3)N3CCOCC3)c(O)n2n1 (stereo unspecified),0,7296,0,-7,3.5,-3,0
O=C(NC(=S)N1CCN(CCO)CC1)C12CC3CC(CC(C3)C1)C2,-12,4059,1,80*,1.1,-7,-9
O=C1/C(=C\c2ccco2)SC(=S)N1Cc1ccccc1,-3,4535,-33,-2,4.9,·,·
O=c1c(-c2cccc(Cl)c2)c[nH]n1-c1ccccc1,0,3632,30,-23,49,11,12

# 2 entries picked at random from those above:
SMILES,BJeLR viability,Autofluor counter,Sa ugtP lethal,PrP UTR inh,RN4220 kill,Mtb hypoxia inh,Mtb hypoxia inh growth
COc1ccc(C(=O)N/C(=C\c2cccs2)c2nc3ccccc3[nH]2)cc1OC,·,10782,18,-16,6.0,4,14
O=c1c(-c2cccc(Cl)c2)c[nH]n1-c1ccccc1,0,3632,30,-23,49,11,12

# Other compounds follow.
SMILES,BJeLR viability,Autofluor counter,Sa ugtP lethal,PrP UTR inh,RN4220 kill,Mtb hypoxia inh,Mtb hypoxia inh growth
C[C@H](NC(=O)c1nc[nH]c1C(=O)N[C@@H](C)C(=O)OC(C)(C)C)C(=O)OCc1ccccc1,8,3639,·,-7,·,·,·
Cc1csc(SCC(=O)NCc2ccccc2Cl)n1,6,3501,3,-5,-1.2,11,13
Cc1c(C)n2c(SCC(=O)N3CCCCC3)nnc2[nH]c1=O,-5,4699,14,-9,4.2,2,7
CC(C)NC(=S)N/N=C/c1ccc2c(c1)OCCO2,-5,2502,·,-18,·,·,·
COc1cc(NC(=O)c2cccnc2)c(Cl)cc1NC(=O)c1ccc(Cl)cc1,3,6462,-1,-4,8.0,-8,-2
CCN1CCN(C(=S)c2ccc(OCC(=O)NCc3ccccc3)cc2)CC1,-1,4657,7,-20,-0.1,5,12
CCCOc1cc(C)c(S(=O)(=O)NCc2cccs2)cc1C,·,5752,-7,-15,6.4,-6,1
c1nc2ccc(Cc3ccc4nc[nH]c4c3)cc2[nH]1,12,4182,1,5,1.2,5,-1
CCCCn1c(N)c(N(CCOC)C(=O)c2c(C)noc2C)c(=O)[nH]c1=O,-7,5110,-5,-19,5.1,7,-1
CC(C)OC(=O)c1cc(C(=O)c2cc(Br)ccc2O)coc1=N,-11,3466,4,63*,4.5,6,-2
Cc1ccccc1C(=O)Nc1ccccc1C(=O)NCc1ccccc1,3,21881*,-7,-3,2.9,-8,-2
Cc1ccccc1NC(=O)NNC(=O)COc1ccc2ccccc2c1,-4,5464,-1,-11,-1.1,0,4
O=C1/C(=C/c2cccs2)SC(=S)N1c1cccc(O)c1,-9,4052,-7,-25,2.1,2,7
Cc1nc(N2CCN(Cc3ccccc3)CC2)c(C#N)c2c1COC(C)(C)C2,-3,2903,5,-26,-2.8,·,·
O=[N+]([O-])c1cc2c(cc1Br)CCN2,7,4617,0,-11,5.1,12,-1
Cn1c(=O)c2c(nc(N/N=C/c3ccc(OC(=O)c4ccco4)cc3)n2Cc2ccc(F)cc2)n(C)c1=O,2,1994,·,-9,·,·,·
CCOC(=O)N1CCC(NC(=O)c2cc(C(=O)Nc3ccc(S(=O)(=O)N4CCCCC4)cc3)ccc2CO)CC1,4,4146,2,-14,2.8,-4,-3
CN(C(=O)c1ccc(NC(=O)Cc2cccc(NC(=O)C3CCN(C(=O)C4CCCCC4)CC3)c2)cc1)C1CCCC1,·,3083,3,-12,7.4,4,-2
Cc1ccc2oc(-c3ccc(NC(=O)c4ccc5c(c4)OCO5)cc3)nc2c1,4,9825,-15,-39,-0.8,7,5
CCC(C)n1nnc2c(=O)oc3ccccc3c21 (stereo unspecified),-5,23717*,0,-22,3.0,8,4
COc1ccc(C(=O)c2c(C)oc3ccc(O)cc23)cc1,12,3401,0,-14,-0.3,4,-4
O=C(/C=C/c1ccc(S(=O)(=O)N2CCOCC2)cc1)OCC(=O)c1ccc([N+](=O)[O-])cc1,5,3475,-10,-7,-1.9,-9,1
Cc1ccc(Nc2nnc(SC3CCOC3=O)s2)cc1 (stereo unspecified),3,2142,2,-14,3.8,-2,-13
C/C(=N/NS(=O)(=O)c1ccc(Cl)cc1)c1ccc2c(c1)OCO2,-10,5624,·,-32,·,·,·

# One compound at a time (already shown):
# O=C1/C(=C\c2ccco2)SC(=S)N1Cc1ccccc1 reads BJeLR viability: -3; Autofluor counter: 4535; Sa ugtP lethal: -33; PrP UTR inh: -2; RN4220 kill: 4.9; Mtb hypoxia inh: ·; Mtb hypoxia inh growth: ·
# c1nc2ccc(Cc3ccc4nc[nH]c4c3)cc2[nH]1 reads BJeLR viability: 12; Autofluor counter: 4182; Sa ugtP lethal: 1; PrP UTR inh: 5; RN4220 kill: 1.2; Mtb hypoxia inh: 5; Mtb hypoxia inh growth: -1
# O=C(c1cc2ccccc2oc1=O)N1CCCN(C(=O)c2cc3ccccc3oc2=O)CC1 reads BJeLR viability: ·; Autofluor counter: 4739; Sa ugtP lethal: 0; PrP UTR inh: -30; RN4220 kill: 4.0; Mtb hypoxia inh: 7; Mtb hypoxia inh growth: 0
